# Screening results (PubChem)
# Sa RN4220 lethal = growth inhibition of S. aureus RN4220, primary screen, OD600 | 16 h | inhibition, % (test concentration not listed) | 0.33% of 330,000 active | AID 1259311, 2017;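 active means z-score of -3 or lower and OD600 up to 0.18 on both plates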;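 further: plate controls were untreated cells for no effect and reference antibiotic for full effect; stock transfer was 100 nL into about 80 µL; one replicate is shown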
# BJeLR lethal = MLPCN primary cell-based screen for lethality selective to Ras in HRASV12 cells. BJeLR (HRASV12) viability, CellTiter-Glo ATP luminescence, 48 h; reference of the scale not given here. inhibition, % (concentration not given with the values). 0.17% of 300,000 active;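 active means replicate mean above 50%; inconclusive means above 50% but judged a plate artefact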;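 further: 50 nL library stock added to about 25 µL; numbers are from one replicate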
# Mtb hypoxia inh = PubChem AID 1159583; fluorescence inhibition, % (no concentration beside the values); M. tuberculosis hypoxia-regulated fluorescent reporter, fluorescence; 0.1% of 300,000 active;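 active means 35 to 45% if threefold the growth effect, above 45% if 1.5-fold the growth effect; inactive means the rest, general growth blockers included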;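 further: wells of about 50 µL received 100 nL stock; 0% = vehicle wells and 100% = reference inhibitor wells; whole bacteria with a GFP reporter of the hypoxia response; strong numbers were not always called active; many hits fall short of the cut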
# PrP UTR inh = inhibition of PrP 5' UTR reporter expression; cell-based PrP 5' UTR mRNA reporter, plate reader; 0.35% of 340,000 active; inhibition, % (test concentration not listed); AID 488862, 2010;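 active means every replicate at 50% or more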;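 further: 0 = median of the neutral control wells; tested in H4 reporter cells; numbers are from one replicate; inactives centre near -14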
# Bead autofluor = counter-screen for toxin protease inhibitors: compound fluorescence | compound autofluorescence counterscreen, microsphere flow cytometry; hits give high values | 3.1% of 360,000 active | fluorescence intensity (test concentration not listed);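 active means at least 3 SD above the mean of all compounds, about 16000 in these data; inconclusive means too few beads counted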;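 further: 100 nL of 1 mM stock went into each well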
# ugtP null kill = growth inhibition of ugtP-null S. aureus, primary screen, RN4220 ugtP deletion, OD600; AID 1259309, 2017; 0.54% of 330,000 active; 16 h; some inactives read as strong as hits; growth inhibition, % (test concentration not listed);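 active means z-score under -3 and OD600 up to 0.15 on both plates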;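 further: plate controls were untreated wells for no effect and antibiotic for full effect; wells of about 80 µL received 100 nL stock; the first replicate is given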
# Mtb hypoxia inh growth = also measured in Mtb hypoxia inh; calls as there; growth inhibition, %; measured here: M. tuberculosis growth (absorbance);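 0% = vehicle and 100% = reference antibiotic; read after six days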
# Active calls of the source: *; ? = inconclusive; nt = not tested or not shown. Hits appear at their usual frequency. About 4% of those tested had a hit in this group.
SMILES,Sa RN4220 lethal,BJeLR lethal,Mtb hypoxia inh,Mtb hypoxia inh growth,PrP UTR inh,Bead autofluor,ugtP null kill
Cc1cc(C)nc(N(C#N)CC(=O)N(c2ccccc2)C(C)C)n1,2.7,0,nt,nt,-8,2137,0
O=C(O)c1ccc(CNCc2ccc(Cl)cc2)cc1,3.0,6,4,5,-7,2417,6
COC(=O)c1ccccc1OC(=O)c1cccnc1,-0.8,8,8,10,nt,10909,1
CCC(=O)N1CCc2cc(S(=O)(=O)CCC(=O)NCCC3=CCCCC3)ccc21,-3.1,-1,nt,nt,-27,3368,5
COc1ccc(C(CNC(=O)c2cc(C)on2)N(C)C)cc1 (stereo not drawn),3.8,-19,2,-3,-12,3352,2
Nc1nc(NS(=O)(=O)c2ccc(Cl)cc2)nn1-c1ccccc1,1.1,-8,14,-7,-6,3165,-2
Cc1onc(-c2ccccc2Cl)c1C(O)c1ccc(F)cc1 (stereo not drawn),7.7,9,7,6,nt,3678,-1
COc1ccc(-n2nc(C(=O)NCC(=O)N3CCN(c4ccccn4)CC3)c3ccccc3c2=O)c(OC)c1,4.4,-13,11,13,-18,4024,-1
COc1cc(C(=S)N2CCCC2)cc(Cl)c1OCC(=O)Nc1ccc(C)cc1C,6.8,3,1,5,-23,10231,-12
O=C(NCc1cccnc1)C1CC(=O)N(c2ccc(F)cc2)C1 (stereo not drawn),-10,-8,17,12,-22,2940,-1
Cc1ccc(NC(=O)c2cc(C)nc3ccccc23)cc1,0.5,1,9,-4,-9,4579,-4
CC(=O)NS(=O)(=O)c1ccc(NC(=S)NC(=O)CC(C)C)cc1,4.4,2,9,9,-39,5088,12
O=C(Nc1cccc(Cl)c1)c1cc(S(=O)(=O)N2CCCCC2)c[nH]1,5.3,-6,8,2,-16,6040,5
Cc1nn(CC(=O)OCCOc2ccc(Br)cc2)c(C)c1[N+](=O)[O-],-1.2,-2,-8,2,-36,3271,-16
COc1ccc(CC(C)=NNC(=S)Nc2ccc(C(C)C)cc2)cc1,3.7,nt,5,-4,nt,nt,28
Cc1ccc(S(=O)(=O)Nc2ccc(NC(=O)CN3CCCCC3)cc2)cc1,-13,-7,19,13,-85,3274,-7
COCCC1CCCCN1C(=O)c1ccc2nc(Cc3ccccc3F)oc2c1 (stereo not drawn),0.8,5,6,6,-55,5577,3
COc1ccc(S(=O)(=O)N2CCN(Cc3ccccc3[N+](=O)[O-])CC2)cc1,3.0,-4,4,4,-20,4407,8
CCCCC(=O)Nc1ccc(N2CCCC2)cc1,-1.8,-2,nt,nt,-20,1448,-5
CCCCC(=O)Nc1ccc(C(=O)NCCCn2ccnc2)cc1,3.1,-21,1,4,-14,10531,-6
COc1ccc(CNC(=O)COc2ccc(S(=O)(=O)NC(C)C)cc2)cc1,3.6,-3,-3,-2,-17,8245,3
Fc1ccc2nc(N3CCCCC3)sc2c1,17,-6,4,5,-37,7429,3
O=C(Cc1c(F)cccc1Cl)Nc1nc2ccccc2s1,nt,4,nt,nt,-46,4172,nt
CC(C)NC(=O)NC(=O)COc1ncnc2sccc12,3.8,-2,6,0,-13,9837,5
CCCCn1c(-c2cc(Cl)ccc2OC)n[nH]c1=S,2.7,nt,6,1,-11,8152,13

# Following part.
SMILES,Sa RN4220 lethal,BJeLR lethal,Mtb hypoxia inh,Mtb hypoxia inh growth,PrP UTR inh,Bead autofluor,ugtP null kill
CC1Cc2ccccc2N1C(=O)CSc1nnc(-c2ccc(S(=O)(=O)N3CCOCC3)cc2)n1C (stereo not drawn),-2.6,-5,5,6,2,2400,0
COC(=O)c1cc(C)sc1NC(=O)c1cccnc1,-1.8,18,-2,4,9,24838*,2
CCSc1ccc(/C(N)=N/OC(=O)c2cccs2)cn1,4.6,-14,6,6,-67,6042,0
CC1CCCN(CCCOc2ccc([N+](=O)[O-])cc2)C1 (stereo not drawn),-2.2,-3,-8,5,-4,2426,-2
O=C(N/N=C/c1cccc2ccccc12)c1ccccc1Cl,nt,0,nt,nt,-13,3103,nt
Cc1ccc(S(=O)(=O)NCCC(=O)Nc2nccs2)cc1,1.4,2,9,4,-15,3492,1
O=C(NCC1CCCO1)/C(=C\c1ccco1)NC(=O)c1ccccc1 (stereo not drawn),nt,-2,nt,nt,1,2608,nt
CC(=O)Oc1cc2c(cc1Cl)C1(CC(c3ccccc3Cl)O2)CC(C)(C)NC(=S)N1 (stereo not drawn),43,-1,nt,nt,-11,4110,49
N#C/C(=C(/O)COC(=O)Cc1c[nH]c2ccccc12)c1nc2ccccc2[nH]1,nt,5,nt,nt,-6,6368,nt
Cc1cccc(NC(=O)CN2CCN(C(=O)CNC(=O)Cc3cccc4ccccc34)CC2)c1C,2.6,nt,-5,1,-16,7703,12
CCOc1cc(C(=S)N2CCN(C)CC2)ccc1OCC(=O)N1CCCC1,3.9,4,3,-3,-20,6254,12
Cc1cc(C(F)F)n2nc(C(=O)Nc3sc4c(c3C#N)CCC4)nc2n1,3.4,-4,-5,4,-14,2115,-6
CC1CCCN(C(=O)c2ccc3c(c2)OCO3)C1 (stereo not drawn),-3.7,8,5,0,-10,nt,-5
CC1CCCC(C)N1c1nnc(N)s1 (stereo not drawn),0.6,-4,nt,nt,5,6216,0
Cc1cc(CNC(=O)c2ccc3c(c2)OCO3)c2ccccc2n1,1.8,-5,0,5,-54,2441,2
CCCCN(C(=O)c1ccc(S(=O)(=O)N2CCOCC2)cc1)C1CCS(=O)(=O)C1 (stereo not drawn),2.0,6,7,7,-20,5423,5
CCOC(=O)c1[nH]c(C)c(C(=O)N2CCN(c3cccc(Cl)c3)CC2)c1C,-6.0,-6,5,5,-15,19964*,-1
COc1cccc(OCCn2cc(C(=O)c3ccco3)c3ccccc32)c1,-5.2,-1,22,12,-10,4449,-23
CCc1noc(C)c1C(=O)Nc1ccccc1N1CCOCC1,6.7,6,7,0,-14,5807,4
CCC(C(=O)NC1CCCCCC1)c1ccccc1 (stereo not drawn),0.8,6,11,-3,-2,6452,9
CC(Sc1nc(N(C)C)nc(N2CCOCC2)n1)C(=O)Nc1ccccc1 (stereo not drawn),5.7,9,nt,nt,-21,3297,-2
CCC(C)(C)NC(=O)CN(CC1CCCO1)C(=O)CNS(=O)(=O)c1ccccc1 (stereo not drawn),3.9,-5,12,2,-20,3821,2
Cc1ccc(-c2csc3ncnc(SCC(=O)NCc4ccc5c(c4)OCO5)c23)cc1,6.5,8,13,6,-21,9797,-12
COC(=O)c1nc(N)sc1C,3.6,-1,-2,2,-12,2059,3
Cc1ccn2c(=O)nc(SCC(=O)NC3CCCCC3)nc2c1,nt,5,nt,nt,-12,?,nt

# Part of the list above in order of number of heavy atoms, largest number first:
SMILES,Sa RN4220 lethal,BJeLR lethal,Mtb hypoxia inh,Mtb hypoxia inh growth,PrP UTR inh,Bead autofluor,ugtP null kill
CCCCN(C(=O)c1ccc(S(=O)(=O)N2CCOCC2)cc1)C1CCS(=O)(=O)C1 (stereo not drawn),2.0,6,7,7,-20,5423,5
CC(Sc1nc(N(C)C)nc(N2CCOCC2)n1)C(=O)Nc1ccccc1 (stereo not drawn),5.7,9,nt,nt,-21,3297,-2
COC(=O)c1nc(N)sc1C,3.6,-1,-2,2,-12,2059,3

# The list goes on:
SMILES,Sa RN4220 lethal,BJeLR lethal,Mtb hypoxia inh,Mtb hypoxia inh growth,PrP UTR inh,Bead autofluor,ugtP null kill
CC[n+]1ccc(/C=C/c2ccc(N(C)C)cc2)c2ccccc21,92*,nt,17,22,20,3492,95*
Cc1cccc(Nc2nc(-c3ccc4c(c3)OCCO4)cs2)c1,20,4,-9,-2,-125,3154,33
C=CCSc1nc2c(C(=O)OCC)nnn2c2ccccc12,4.1,2,0,-2,-3,3239,10
Cc1c(Cl)c([N+](=O)[O-])nn1CCCC(=O)Nc1cc(Cl)ccc1Cl,24,-3,5,0,-22,7546,-7
CCn1cc(CN2CCCC(CNS(=O)(=O)Cc3ccccc3)C2)cn1 (stereo not drawn),6.0,2,8,8,41,4580,13
COc1ccc(CC(=O)Nc2ccc(N3CCOCC3)cc2)cc1OC,2.0,-4,4,7,-19,5651,7
COc1ccccc1N(CC(=O)Nc1ccccc1C(=O)N1CCCC1)S(C)(=O)=O,1.3,-9,14,5,-20,3627,2
COc1ccc(C=C2C(=O)N(C)C(=O)N(C)C2=O)cc1COc1ccc(NC(C)=O)cc1,-3.5,25,-1,-18,-5,3723,-1
CC(C(=O)Nc1nc2ccccc2[nH]1)N1C(=O)C2CC=CCC2C1=O (stereo not drawn),0.8,-2,nt,nt,0,3596,-2
COc1cccc(-c2c(C(=O)NN=C(C)c3ccncc3)nnn2-c2nonc2N)c1,0.3,nt,1,7,nt,nt,1
Cc1cc(C(=O)Nc2cccc(O)c2)c(C)o1,-0.5,14,-5,8,-15,8575,-3
O=C(O)C1CCCN(C(=O)NCc2ccccc2)C1 (stereo not drawn),0.1,-12,5,6,-18,4389,-2
O=C1CCCc2ccccc2N1Cc1ccc(Cl)cc1Cl,2.2,-6,nt,nt,-7,2551,-2
COc1cc(NC(=S)NCCC(c2ccccc2)c2ccccc2)c(OC)cc1Cl,-6.8,1,2,8,5,2062,-3
CCCCCCCC[n+]1cccc(C(=O)N(CC)CC)c1,2.4,7,12,-1,-10,2127,8
CC(C)CC(NC(=O)C1OC1C(=O)O)C(=O)NCCCCN=C(N)N (stereo not drawn),6.1,nt,-6,2,nt,nt,1
Cc1nc(NS(=O)(=O)c2ccc(Cl)s2)c2c3c(sc2n1)CCCC3,nt,14,nt,nt,-25,4603,nt
COc1ccc(C/C(N)=N/OC(=O)CCc2ccccc2)cc1,1.6,2,16,0,-27,3744,16
Cc1ccc(S(=O)(=O)NCCC(=O)N2CCC(Cc3ccccc3)CC2)cc1,0.5,13,4,8,-14,?,-5
O=S(=O)(c1ccc(F)cc1)c1nc(-c2ccco2)oc1Nc1ccc(F)cc1,-4.2,-4,-11,0,-8,2469,11
O=C1C2=C(CCCC2)C(=O)N1c1cccc(OCCBr)c1,5.1,-3,-2,7,-9,2168,1
CCOC(=O)c1ccccc1NC(=O)c1cccc(F)c1,2.2,0,nt,nt,-23,2402,4
O=P(Oc1ccccc1)(Oc1ccccc1)c1ccccc1,7.5,4,6,0,5,4850,4
Cc1ccc(C(=O)OCC(=O)NC(C)c2ccccc2)s1 (stereo not drawn),4.6,nt,8,5,-24,4256,6
COc1cc(CNn2cnnc2)ccc1OCC(=O)NC(C)(C)C,5.0,15,5,7,-4,3200,-3

# Compound profiles (already shown). Order of screens: Sa RN4220 lethal	BJeLR lethal	Mtb hypoxia inh	Mtb hypoxia inh growth	PrP UTR inh	Bead autofluor	ugtP null kill
# Cc1c(Cl)c([N+](=O)[O-])nn1CCCC(=O)Nc1cc(Cl)ccc1Cl reads 24	-3	5	0	-22	7546	-7
# CCn1cc(CN2CCCC(CNS(=O)(=O)Cc3ccccc3)C2)cn1 (stereo not drawn) reads 6.0	2	8	8	41	4580	13

# (cont.)
SMILES,Sa RN4220 lethal,BJeLR lethal,Mtb hypoxia inh,Mtb hypoxia inh growth,PrP UTR inh,Bead autofluor,ugtP null kill
COc1ccc(C)cc1N(C(=O)CNC(=O)c1ccco1)C(C(=O)NC1CCCC1)c1cccnc1 (stereo not drawn),-1.1,-1,nt,nt,-14,4123,5
COCCN(C(=S)Nc1ccc(C(C)C)cc1)C(C)c1cccs1 (stereo not drawn),6.1,-1,-2,4,nt,4814,9
ClCc1c2ccccc2cc2ccccc12,3.4,nt,-4,0,-18,5824,16
COc1ccc(NC(=O)Nc2ccc(C(=O)N3CCOCC3)cc2)cc1,-0.1,6,nt,nt,-20,2882,6
Cc1nn(-c2ccccc2)c(Cl)c1C=NNC(=O)c1cccnc1,3.2,nt,4,6,nt,nt,-1
CC(Sc1nnc(Cc2ccccc2)o1)C(=O)Nc1ccccc1[N+](=O)[O-] (stereo not drawn),3.6,nt,-1,-4,nt,7664,2
COC(=O)c1ccc(OCC2c3cc(OC)c(OC)cc3CCN2C(=O)c2ccco2)cc1 (stereo not drawn),-5.7,1,-10,9,4,19776*,-1
Cc1ccc(CNC(=O)COc2ccccc2-c2ccccc2)cc1,11,-9,15,5,6,2530,7
CN1CCCN(C(=O)CC2(CC(=O)O)CCCC2)CC1,3.2,3,9,8,-14,4224,4
CN(C)c1ccc(C(=S)N2CCN(C(=S)Nc3cccc4ccccc34)CC2)cc1,11,-4,14,4,-33,4348,6
Cc1ccc(C(=O)N2CCCC(CCC(=O)N3CCN(c4ccccn4)CC3)C2)s1 (stereo not drawn),0.3,5,3,12,-40,4360,8
COc1ccc(C(=O)CNc2ccccc2C#N)cc1,1.0,1,-6,4,-27,4733,1
